Screens as filed in PubChem.
LASV entry inh = qHTS for Inhibitors of binding or entry into cells for Lassa Virus; Lassa virus pseudotype entry inhibition, cell reporter; control for the full effect not named in the record; Potency, µM (doses to about 37.9 µM), inactives show top-dose activity change, negative = inhibition, actives largely listed as inhibitors; hit rate 1.2% among 300,000; AID 540256, 2011; active means well fitted inhibition curve with a large enough effect; inconclusive means small, poorly fitted or top-dose-only effect, or effect the other way; inactive means flat fitted curve, though single readings scatter; tested in HEK293 cells; note: % is set by controls: 0 for no effect and ±100 for the full control effect; nearly all actives have a fitted effect of over 50% in size; luciferase read-out
Cruzain noTriton = qHTS Assay for Promiscuous and Specific Inhibitors of Cruzain (without detergent). Cruzipain (Trypanosoma cruzi), P25779. purified cruzain, Z-FR-AMC fluorescence, no detergent. Potency, µM, for the others: max response, negative = inhibition, usual class: inhibitors. hit rate 2.3% among 200,000. AID 1476, 2009;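 note: plate controls were enzyme without inhibitor for no effect and buffer without enzyme for full effect; nearly all actives have a fitted effect of over 40% in size; top concentration of the series not given in the record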
Target sequence (P25779 123-467 limits assumed): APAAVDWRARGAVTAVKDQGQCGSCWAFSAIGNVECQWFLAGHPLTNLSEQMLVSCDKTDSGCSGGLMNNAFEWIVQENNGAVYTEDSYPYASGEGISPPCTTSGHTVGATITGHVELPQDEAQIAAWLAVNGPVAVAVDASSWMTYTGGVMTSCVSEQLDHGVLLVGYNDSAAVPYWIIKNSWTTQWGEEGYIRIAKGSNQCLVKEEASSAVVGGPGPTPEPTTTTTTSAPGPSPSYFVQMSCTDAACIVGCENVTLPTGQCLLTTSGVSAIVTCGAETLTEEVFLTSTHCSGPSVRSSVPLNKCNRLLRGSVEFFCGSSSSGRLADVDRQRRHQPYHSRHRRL
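Purified cruzain at 1.5 nM, pre-incubated 15 min with compound at room temperature in 100 mM sodium acetate pH 5.5, 5 mM DTT, 0.00005% Triton X-100. Reaction started with 2 uM Z-FR-AMC; AMC fluorescence increase over 60 s gives rate.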
Cruzain inh Det = qHTS Assay for Promiscuous and Specific Inhibitors of Cruzain (with detergent) | AID 1478, 2009 | hit rate 0.43% among 200,000 | Cruzipain (Trypanosoma cruzi), P25779 | Potency, µM, for the others: max response, negative = inhibition, hits mostly inhibitors | purified cruzain, Z-FR-AMC fluorescence, 0.01% Triton;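 note: plate controls were neutral wells for no effect and buffer without enzyme for full effect; nearly all actives have a fitted effect of over 40% in size; top concentration of the series not given in the record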
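Detergent-containing arm of a paired screen for aggregation-based inhibition: 0.01% Triton X-100 present. Cruzain at 1.5 nM cleaved 2 uM Z-FR-AMC at pH 5.5 with 5 mM DTT; AMC fluorescence gain over 60 s measured activity.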
RE007 growth inh = qHTS Assay for Inhibitors of the HIV-1 protein Vpr; S. pombe RE007 Vpr strain, BacTiter-Glo ATP luminescence, 24 h; control for the full effect not named in the record; hit rate 0.21% among 360,000; AID 651644, 2012; Potency, µM (series often up to 92.2 µM), without a hit: at the highest dose activity change, negative = less growth; active = well fitted falling curve with a large enough effect; inconclusive = small, poorly fitted or top-dose-only effect; inactive = no such curve, though single readings can be large or run the other way;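 note: % is set by controls: 0 for no effect and ±100 for the full control effect; nearly all actives have a fitted effect of over 50% in size; the assay follows cell death caused by Vpr and the record does not say whether a fall means rescue or toxicity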
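Fission yeast strain RE007, carrying one chromosomally integrated HIV-1 vpr copy, was seeded at OD 0.01 in PMG+AL medium with 23 nL pinned compound. After 24 h at 30 °C and 99% humidity, viability was read by BacTiter-Glo luminescence.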
NS1 inh = qHTS Assay for Inhibitors of Influenza NS1 Protein Function. S. cerevisiae slowed by influenza A NS1, growth recovery by OD600. Potency, µM (doses to about 46.1 µM), without a hit: at the top dose activity, positive = more growth. hit rate 0.4% among 270,000; active means well fitted rising curve with a large enough effect; inconclusive means small, poorly fitted or top-dose-only effect; inactive means no such curve, though single readings can be large or run the other way; note: nearly all actives have a fitted effect of over 50% in size
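S. cerevisiae expressing influenza A NS1, grown in glucose, washed, then diluted 1:100 into pH 6.0 -URA galactose medium with 23 nl compound. Growth recovery read as OD600; NS1-free strain serves as control.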
SARS PLpro yeast = qHTS of Yeast-based Assay for SARS-CoV PLP | S. cerevisiae expressing SARS-CoV PLpro, growth rescue; control for the full effect not named in the record | Potency, µM (titrated, usually from 32.9 µM), for the others: at the top dose activity, positive = growth rescue | hit rate 0.19% among 330,000; active means well fitted rising curve with a large enough effect; inconclusive means small, poorly fitted or top-dose-only effect; inactive means no such curve, though single readings can be large or run the other way; note: 0% is about no effect; nearly all actives have a fitted effect of over 55% in size; growth read by luminescence after 48 h
StopGo reporter = High Throughput Screening for Foot and Mouth Disease Virus Antivirals | human cells with a luciferase reporter of 2A StopGo recoding; control for the full effect not named in the record | Potency, µM (series often up to 57.9 µM), inactives show top-dose signal change, negative = less light | hit rate 1.2% among 410,000 | AID 1159524, 2015; active = well fitted falling curve with a large enough effect; inconclusive = small, poorly fitted or top-dose-only effect; inactive = no such curve, though single readings can be large or run the other way; tested in HEK293T cells; note: % is set by controls: 0 for no effect and ±100 for the full control effect; nearly all actives have a fitted effect of over 45% in size; luciferase light after 4 h
Marburg entry inh = qHTS for inhibitors of binding or entry into cells for Marburg Virus | Marburg virus pseudotyped entry inhibition, cell reporter; control for the full effect not named in the record; about a third of the inactives were read at about 46 µM | AID 540276, 2011 | Potency, µM (series often up to 37.8 µM), for the others: at the highest dose activity change, negative = inhibition, most hits filed as inhibitors | hit rate 1.8% among 300,000; active = well fitted inhibition curve with a large enough effect; inconclusive = small, poorly fitted or top-dose-only effect, or effect the other way; inactive = flat fitted curve, though single readings scatter; tested in HEK293 cells; about a fifth of its hits are not listed in these tables; note: % is set by controls: 0 for no effect and ±100 for the full control effect; luciferase read-out
* = called active by the depositor; ? = inconclusive; / = not tested or not shown; [ ] = dose if it differs, or a comment. Unless noted, calls come from the whole dose curve; as a rule, active = well fitted curve in the direction sought with a large enough effect; inconclusive = small, poorly fitted or top-dose-only effect, or another doubt; inactive = no such curve, though single readings can be large; an effect the other way counts as inactive or inconclusive. Potency is the fitted concentration of half-maximal effect.

SMILES | LASV entry inh | Cruzain noTriton | Cruzain inh Det | RE007 growth inh | NS1 inh | SARS PLpro yeast | StopGo reporter | Marburg entry inh
Cc1noc(C)c1COc1cccc(C(=O)NCc2cccc(Cl)c2)c1 | 0% | -10% | -1.3% | 3% | -10% | -3% | 3% | -28%[46.1 µM]
CN(C)CCCNC(=O)c1ccc(-c2ccccc2)cc1 | 5% | -1% | -1.7% | -9% | 1% | -1% | -15% | ?
COc1ccc(Cl)cc1NC(=O)CN(C)C(=O)c1ccc(C)s1 | -3% | / | / | 2% | / | -5% | -8% | -26%[46.1 µM]
Nc1ccc2ccccc2c1[N+](=O)[O-] | 5%[46.1 µM] | / | / | -29% | / | / | -7% | 1%[46.1 µM]
CC(=O)Nc1ccc(-c2nnc(SCC(=O)n3c4c(c5ccccc53)CCCC4)n2C)cc1 | 10% | ? | -6.8% | -5% | ? | -2% | -11% | 12%
CC(=O)N1CC(C)Oc2ccc(S(=O)(=O)NC(CC(=O)O)c3ccccc3)cc21 (stereo unspecified) | / | / | / | -1% | 3% | 5% | -13% | /
O=C(NCC1CCCO1)c1ccc(Cl)c(S(=O)(=O)N2CCOCC2)c1 (stereo unspecified) | ? | / | / | 0% | -5% | 3% | 1% | 7%[46.1 µM]
CC(C)c1nnc(NC(=O)CCC(=O)N2CCN(c3ccccn3)CC2)s1 | -2% | 2% | 10% | 10% | 1µM* | 0% | 11% | 8%
CCc1ccc(C(=O)Nc2cccnc2Oc2ccc(Cl)cc2)cc1 | -19% | / | / | -12% | -6% | -2% | 8% | -17%[46.1 µM]
C=CCn1c(N2CCN(c3ccc(OC)cc3)CC2)nc2c1c(=O)[nH]c(=O)n2C | ? | / | / | 35% | 0% | -1% | 6% | 0%[46.1 µM]
COc1ccc(C2=NN(C(=O)CCC(=O)O)C(c3ccccc3OC)C2)cc1 (stereo unspecified) | 6%[46.1 µM] | / | / | 17% | 14% | 1% | 6% | 8%[46.1 µM]
CCCCNC(=O)CSc1nc(Cc2ccccc2)nc2ccccc12 | / | / | / | 25% | 1% | -1% | -14% | /
Cc1cc(C(=O)NCC(C)(C)N2CCOCC2)c(C)o1 | 14% | / | / | -14% | / | 5% | 9% | 0%[46.1 µM]
O=S(=O)(NCc1ccc(Cl)cc1)NCc1ccccc1F | ? | / | / | -12% | / | -3% | 28% | -15%[46.1 µM]
Cc1cc(-c2nnc(CCC(=O)NC(Cc3ccccc3)c3ccccc3)o2)no1 (stereo unspecified) | ? | / | / | 12% | 2% | 0% | -11% | -7%[46.1 µM]
CCc1ccccc1-n1c(SCC(=O)NC)nnc1-c1cccnc1 | 5% | -3% | 4.8% | 2% | 3% | 7% | -24% | 5%
CC(=O)c1c(C)nn(CCC(=O)O)c1C | 17% | 5% | 1.7% | -5% | 3% | 1% | -6% | 17%
c1csc(-c2nnc(COc3ccc4c(c3)OCO4)o2)c1 | ? | / | / | 5% | / | -7% | 42%[activator] | 11%[46.1 µM]
Cc1sc2nc(COC(=O)c3ccc(N4CCCC(C)C4)c([N+](=O)[O-])c3)[nH]c(=O)c2c1C (stereo unspecified) | -1% | 7.9µM* | -5.4% | 2% | ? | 0% | -15% | ?
Cc1cc(O)c(CN2CCN(c3ccccc3)CC2)c2oc(=O)cc(C)c12 | 14%[46.1 µM] | ? | -20% | / | / | / | -11% | 14%[46.1 µM]
CCn1c(NCc2cccc(Cl)c2)nc2ccccc21 | -6%[46.1 µM] | -10% | -2.4% | / | / | / | -22% | 6%[46.1 µM]
Cc1ccc2c(c1)N(CC(=O)N1CCCC1)C(=O)CO2 | 0%[46.1 µM] | / | / | 2% | 16% | 1% | -14% | -9%[46.1 µM]
COc1ccccc1OCCCn1cc(C=O)c2ccccc21 | ? | / | / | 15% | -3% | -1% | -30% | ?
CCc1ccccc1NC(=O)CCCN1C(=O)CCn2nc(-c3cn(C)c4ccccc34)cc21 | -9%[46.1 µM] | ? | -2.2% | / | / | / | -24% | /
Cc1[nH]c2ccccc2c1C(=O)COc1ccccc1 | 12% | / | / | 13% | -7% | -1% | 24% | 28%
O=S(=O)(NCCNc1ncc(C(F)(F)F)cc1Cl)C(F)(F)F | -4% | / | / | 0% | -90% | -6% | -6% | ?
O=C(Nc1ccc(Cl)c(S(=O)(=O)N2CCOCC2)c1)c1cc(-c2ccccn2)nc2ccccc12 | ? | / | / | 0% | / | 1% | -26% | ?
NC(=O)Nc1ccccc1C(=O)N1CCC(O)(c2ccc(Cl)cc2)CC1 | ? | 0% | -2.1% | 3% | 5% | 1% | 0% | 14%
CSc1cccc(NC(=O)C2CCN(c3nc4ccccc4[nH]3)CC2)c1 | 3%[46.1 µM] | -13% | -1.2% | / | / | / | -11% | /
CC(=O)N1CCC(N(C(=O)Nc2ccc(Cl)cc2)C(C)C)CC1 | / | / | / | -10% | -3% | -4% | -12% | /
O=C(CC1C(=O)NCCN1C(=O)Nc1ccc(F)cc1)Nc1ccc(F)cc1 (stereo unspecified) | 14% | / | / | -1% | 2% | 0% | -20% | -23%
CC1CCCCC12NC(=O)N(CC(=O)NC(=O)NCc1ccco1)C2=O (stereo unspecified) | 0% | -2% | 1.3% | -9% | 16% | -3% | -17% | -5%
CCCCN(C(=O)CCC(=O)Nc1cc(C)on1)C(C(=O)NC1CCCC1)c1cccc(OC)c1 (stereo unspecified) | 16%[46.1 µM] | / | / | -18% | -5% | 3% | 19% | ?
O=C(Cc1ccccc1)NCCCN1CCN(CCCNC(=O)Cc2ccccc2)CC1 | 13% | -12% | 3.3% | -9% | 0% | 5% | -8% | 17%
Cc1cc(=O)n(Cc2ccccc2)c2c(C)cccc12 | 17%[46.1 µM] | / | / | 0% | 3% | 1% | -18% | ?
COc1ccc(C2CC(c3cccs3)n3nc(N)nc3N2)cc1 (stereo unspecified) | / | -8% | -4.8% | 3% | -10% | 15% | 0% | /
CSc1nnc(NC(=O)c2nc(S(=O)(=O)Cc3cccc(C)c3)ncc2Cl)s1 | ? | / | / | -6% | 16% | 25% | 5.6µM* | ?
O=C1NC(=O)N(C2CCCCC2)CC1Br (stereo unspecified) | 17%[46.1 µM] | / | / | -7% | / | / | -19% | -4%[46.1 µM]
O=C(Nc1ccc(S(=O)(=O)N2CCCCC2)cc1)c1cccnc1Cl | 4% | / | / | 6% | / | 4% | -2% | -18%[46.1 µM]
CCOc1cc(C2C(C(=O)Nc3ccccc3)=C(C)Nc3ncnn32)cc(Br)c1O (stereo unspecified) | -12%[46.1 µM] | -1% | -1.3% | / | / | / | -4% | /
COc1ccc(C(=O)NCC(=O)N/N=C/c2cn[nH]c2-c2ccccc2)cc1 | 10% | / | / | -1% | / | -1% | -17% | 26%[46.1 µM]
Cc1ccc(-c2nnn(CC(=O)N(c3ccc(F)cc3)C(C(=O)NC(C)(C)C)c3ccco3)n2)o1 (stereo unspecified) | 6% | 9% | 1.9% | 2% | 14% | -18% | -6% | -17%
COc1ccccc1C(=O)NCc1ccc2c(c1)CCN2C(=O)c1cccc(C)c1 | 6%[46.1 µM] | 4% | -0.2% | / | / | / | -13% | /
CCOc1ccc(NC(=O)c2oc3ccccc3c2NC(=O)c2c(F)cccc2F)cc1 | 12%[46.1 µM] | -7% | -0.1% | / | / | / | -11% | 5%[46.1 µM]
CCOc1ccccc1NC(=O)CCC(=O)Nc1nnc(C2CCCCC2)s1 | 20%[46.1 µM] | / | / | -10% | 2% | 11% | 10% | 21%[46.1 µM]
Cc1ccc(S(=O)(=O)Nc2nc(-c3ccccc3)cs2)cc1 | 27% | / | / | -2% | -14% | -3% | 15% | -13%
O=C(Nc1ccc(F)c(Cl)c1)Nc1ccc(Cl)cn1 | / | / | / | -20% | 0% | 0% | 12% | /
COC(=O)c1sc2ncn(-n3c(C)ccc3C)c(=O)c2c1C | 10% | -3% | -2.1% | -6% | 3% | -3% | -11% | -14%
COc1ccc(C(CNC(=O)c2cccc(S(=O)(=O)Nc3ccc(F)cc3)c2)N2CCCC2)cc1 (stereo unspecified) | -24% | / | / | -9% | / | / | 7% | ?
CCN(CC)S(=O)(=O)c1cc(-c2nnc(-c3ccc(Br)cc3)o2)ccc1Br | -13% | ? | -4.4% | -5% | 5% | -5% | ? | ?
Continuation.
SMILES | LASV entry inh | Cruzain noTriton | Cruzain inh Det | RE007 growth inh | NS1 inh | SARS PLpro yeast | StopGo reporter | Marburg entry inh
Fc1cccc(Cl)c1Cc1noc(/C=C/c2ccccc2)n1 | 13% | -5% | -4.0% | -4% | -3% | -16% | / | 25%
CC(=O)Nc1sc(N/N=C/c2ccccc2F)nc1-c1ccc(C)cc1 | / | / | / | -1% | 25% | 1% | 74%[activator] | -9%
Cn1c(=O)oc2cc(S(=O)(=O)N3CCCC(C(=O)N4CCn5c4nc4ccccc45)C3)ccc21 (stereo unspecified) | -1% | 12% | -0.9% | / | 4% | 4% | / | 1%
O=C(Nc1cc(C(F)(F)F)ccc1N1CCOCC1)c1cn2ccccc2n1 | -12% | -10% | 1.6% | -9% | 0% | 14% | 0% | -23%
COCC(=O)n1nc(NCc2ccc(OC)cc2)nc1NCc1ccc(OC)cc1 | 6% | 15% | -3.7% | 9% | -62% | -2% | -13% | ?
Cc1cc(C)cc(NC(=O)c2cc(=O)c3ccccc3o2)c1 | 14%[46.1 µM] | / | / | 4% | / | 0% | -10% | 0%[46.1 µM]
Cc1ccc(Cn2c(C(=O)O)cc3sccc32)cc1 | 1% | 0% | -6.4% | 20% | -38% | -37% | 0% | ?
Cc1cc(C)c2cc(C(O)c3nnnn3Cc3ccccc3)c(=O)[nH]c2c1 (stereo unspecified) | -15% | -9% | 0.6% | 1% | -8% | -8% | / | -1%
COc1ccc(CNC(=O)CSc2ncc3c(n2)-c2cc(Cl)ccc2N(C)S3(=O)=O)cc1 | -3%[46.1 µM] | -1% | 3.6% | / | / | / | -23% | /
